Mtb bLac sens: beta-lactam sensitization of Mtb H37Rv; inhibition, % at 25 µM; 0.27% of 330,000 active; M. tuberculosis H37Rv growth with meropenem, percent inhibition; hits of this screen are not shown here;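 active means about 74% or more and at least 40 points above the plate without the antibiotic, then above 30% in a dose series; inconclusive means first-round hits that could not be retested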;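 further: growth measured after seven days incubation then overnight dye step; 0% = bacteria only wells and 100% = bacteria with antibiotic; twin plates without the antibiotic show which effects depend on it; some results filed as inactive read as strong as hits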
YopH PTP inh: inhibitors of Yersinia enterocolitica YopH tyrosine phosphatase; AID 898; inhibition, %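 (about 10 µM by stock and volumes)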; fluorescence Ex485/Em525; 0.16% of 140,000 active;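 active means inhibition of 50% or more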;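 further: controls were vehicle for no effect and minimum signal wells for full effect; inactives centre near -20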
Mtb growth: M. tuberculosis H37Rv growth inhibitors, H37Rv strain (AID 1626); M. tuberculosis H37Rv growth inhibition; higher % means a stronger effect; inhibition, % at 10 µM; hits with a dose series show IC50 in µM; 0.95% of 220,000 active;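 active means confirmed in a dose series; inconclusive means inhibition above 80% but not taken into the dose series; inactive means below 80% or under 30% at every dose of the series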;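 further: bacteria incubated seven days before Alamar blue readout; 0% = bacteria only wells and 100% = bacteria with antibiotic wells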
Arbovirus inh: blocks arbovirus infection. arbovirus infection cell-based antiviral screen. inhibition, % at 10 µM. 0.37% of 200,000 active. AID 1251;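 active means inhibition from about 30%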;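 further: bluetongue infection of BSR cells; cell survival read as ATP light after 72 h; 0% = infected wells without compound and 100% = uninfected wells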
RecA intein inh: inhibitors of M. tuberculosis RecA intein splicing; cell-free RecA intein splicing, fluorescence; inhibition, %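 (about 9 µM by stock and volumes)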; 0.75% of 290,000 active; in the data active means inhibition above about 30%; inconclusive means no clear call, values can overlap the other calls;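 further: 0% = vehicle wells and 100% = reference inhibitor control wells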
Target sequence (P9WHJ3 whole entry, looked up): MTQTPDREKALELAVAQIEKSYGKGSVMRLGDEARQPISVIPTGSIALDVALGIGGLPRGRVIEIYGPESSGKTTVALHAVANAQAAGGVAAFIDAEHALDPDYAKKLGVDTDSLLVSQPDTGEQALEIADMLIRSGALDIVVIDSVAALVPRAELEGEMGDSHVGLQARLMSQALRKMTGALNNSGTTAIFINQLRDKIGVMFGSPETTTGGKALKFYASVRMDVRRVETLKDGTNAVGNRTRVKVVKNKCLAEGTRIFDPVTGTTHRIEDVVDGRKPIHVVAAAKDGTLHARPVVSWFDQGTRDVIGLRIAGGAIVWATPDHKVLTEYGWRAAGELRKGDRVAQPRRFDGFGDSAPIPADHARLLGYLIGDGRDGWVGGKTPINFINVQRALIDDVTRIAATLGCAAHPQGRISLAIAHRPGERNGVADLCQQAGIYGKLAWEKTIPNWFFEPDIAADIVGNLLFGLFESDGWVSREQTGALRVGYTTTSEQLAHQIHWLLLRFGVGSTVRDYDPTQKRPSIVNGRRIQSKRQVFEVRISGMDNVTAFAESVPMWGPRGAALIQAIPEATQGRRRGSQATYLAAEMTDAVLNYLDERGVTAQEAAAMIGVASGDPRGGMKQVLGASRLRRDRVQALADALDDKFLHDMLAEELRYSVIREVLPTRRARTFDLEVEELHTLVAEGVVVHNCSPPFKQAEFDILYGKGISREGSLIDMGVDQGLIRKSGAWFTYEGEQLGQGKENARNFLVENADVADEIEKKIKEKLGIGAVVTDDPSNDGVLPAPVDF
Arbovirus inh repeat: also measured in Arbovirus inh; calls as there; inhibition, %; measured here: 10K subset replicate screen; many hits read low in the repeat;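 first of two repeat runs on a subset; 0% = infected and 100% = uninfected wells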
* hit, by the source's call; ? = inconclusive; · = not tested or not shown. Some of the compounds tested (hit frequency here may not be typical).

SMILES | Mtb bLac sens | YopH PTP inh | Mtb growth | Arbovirus inh | RecA intein inh | others
Cc1ccc(SCC(=O)O/N=C(\N)c2ccc([N+](=O)[O-])cc2)cc1 | 3.0 | -19.4 | -5.5% | -12.2 | 10.8
O=C(Nc1ccc(C(=O)N2CCCCC2)cc1)c1ccccc1Br | -14.6 | · | · | · | -0.4
CC(C)c1nnc(NC(=O)CSc2nnc(NC(=O)c3c(F)cccc3F)s2)s1 | 4.1 | · | -5.0% | 11.4 | ·
Cc1cccc(-c2nc(CS(=O)CC(=O)NCc3ccco3)c(C)o2)c1 (stereo not given) | 0.8 | · | · | · | -1.2
COC(=O)c1ccc(NC(=O)COc2cccc(-n3cnnn3)c2)cc1 | -0.7 | · | · | · | -0.4
COC(=O)Cn1ccc(N(C)C)c(C#N)c1=O | -1.6 | -22.4 | 3.6% | 11.5 | 0.9
COc1ccccc1CNC(=O)COC(=O)[C@H](Cc1c[nH]c2ccccc12)NC(=O)c1cccs1 | -2.4 | -32.9 | 0.4% | -12.9 | 6.9
Cc1cc(C)nc(Nc2ccccc2Br)n1 | 6.9 | -24.6 | · | 4.8 | 1.9
COc1ccc(CNC(=O)COC(=O)c2ccccc2C(=O)c2ccccc2)cc1 | 8.1 | · | 4.0% | 9.1 | 9.5
O=C(Nc1cccs1)Nc1c(F)c(F)c(F)c(F)c1F | -2.9 | -36.1 | 1.8% | 3.3 | 1.2
CC(=O)n1cc([C@@H]2C=C(C(=O)Nc3ccccc3)O[C@H](OCCCCO)C2)c2ccccc21 | -7.2 | · | 3.1% | -15.2 | 3.3
CCn1nnnc1SCC(=O)NCc1ccc2c(c1)OCO2 | -5.5 | 27.5 | -10.3% | 1.4 | -0.4
COc1ccc2nc(SCC(=O)NCc3ccc(OC)c(OC)c3)[nH]c2c1 | 5.4 | · | · | · | -0.4
Cc1ccc(CN2CCN(Cc3ccco3)CC2)cc1 | 1.1 | · | · | · | 0.0
CC(C)CN1CCC(Oc2cccc(C(=O)NCCc3ccccc3)c2)CC1 | -8.0 | · | · | · | -1.9
CN(Cc1cn(C)nc1-c1ccc(Oc2ccccc2)cc1)C1CCOC1 (stereo not given) | -9.8 | · | -7.2% | · | -0.5
O=C(NCC(c1ccco1)N1CCCC1)c1cccc(NS(=O)(=O)c2ccc(Br)cc2)c1 (stereo not given) | 5.3 | · | · | · | 0.6
CCCc1[nH]nc2c1C(c1cc(OC)cc(OC)c1)C(C#N)=C(N)O2 (stereo not given) | 0.1 | -15.5 | -11.5% | -1.0 | 44.4*
O=C(NCc1ccccc1)C(=O)NCC1OCCN1C(=O)c1ccc(Cl)cc1 (stereo not given) | -3.4 | · | -2.4% | 16.3 | -3.7
Cc1cc(C)n(-c2nc(SCC(=O)O)c3c4c(sc3n2)CCCC4)n1 | 88.5 | · | 63.1% | · | 2.1

3 compounds picked at random from the list so far, as already listed:
SMILES | Mtb bLac sens | YopH PTP inh | Mtb growth | Arbovirus inh | RecA intein inh | others
Cc1cccc(-c2nc(CS(=O)CC(=O)NCc3ccco3)c(C)o2)c1 (stereo not given) | 0.8 | · | · | · | -1.2
CC(C)c1nnc(NC(=O)CSc2nnc(NC(=O)c3c(F)cccc3F)s2)s1 | 4.1 | · | -5.0% | 11.4 | ·
O=C(NCc1ccccc1)C(=O)NCC1OCCN1C(=O)c1ccc(Cl)cc1 (stereo not given) | -3.4 | · | -2.4% | 16.3 | -3.7

(listing goes on)
SMILES | Mtb bLac sens | YopH PTP inh | Mtb growth | Arbovirus inh | RecA intein inh | others
CCOc1cc(C(=O)N(C)Cc2cc3ccccc3[nH]c2=O)cc(OCC)c1OCC | 17.3 | -17.5 | 4.8% | 16.1 | -0.8
COc1ccc(CCN2C(=O)c3ccccc3C2(O)c2ncc[nH]2)cc1OC (stereo not given) | 5.8 | -13.7 | 2.0% | 4.7 | -0.8
Cc1ccc(N=C2C(=O)Nc3ccccc32)c(C)c1 | -0.7 | · | · | · | -7.2
Cc1ccc(NC(=O)CN(C)S(=O)(=O)c2ccc3c(c2)n(C)c(=O)c(=O)n3C)cc1 | -5.3 | · | · | · | -4.9
CCOC(=O)COc1nc(-c2ccc(Cl)cc2)cc(-c2ccco2)c1C#N | · | · | 3.0% | · | -0.9
CCc1noc(C)c1C(=O)Nc1ccc(Cl)c(S(=O)(=O)N2CCCCC2)c1 | -12.3 | · | · | · | 4.9
CCOc1ccc(NC(=O)CN(C)C(=O)Cn2cnc3c2c(=O)n(C)c(=O)n3C)cc1OCC | -5.6 | · | · | · | 2.4
Cc1ccn2cc(CCNC(=O)CC3CCCCC3)nc2c1 | -0.3 | · | 3.5% | 2.8 | -2.2
S=C(N/N=C/c1ccc(Cl)c(Cl)c1)Nc1ccccc1Cl | 13.0 | · | 1.7% | -11.8 | -0.7
COC(=O)c1[nH]c2cccc(OC)c2c1NC(=O)CCN1CCN(c2ccccc2OC)CC1 | · | 2.0 | -0.8% | 0.5 | -0.5
Cc1ccc(NC(=O)COC(=O)c2ccc([N+](=O)[O-])o2)cc1S(=O)(=O)N1CCCCCC1 | 94.2 | · | -7.1% | 3.3 | 5.5
O=C(NCc1nnnn1-c1ccc(Cl)cc1)c1ccc(Br)o1 | -4.8 | · | · | · | -2.5
CCC(C)(C)n1nnnc1C(c1cccs1)N1CC=C(c2ccc(F)cc2)CC1 (stereo not given) | 8.1 | -33.8 | -1.3% | 8.2 | 9.8
CC(C)N(C(=O)COC(=O)c1cc(Cl)cc(Cl)c1N)C(C)C | -3.6 | 8.0 | 6.9% | 3.5 | 4.0
Cc1ccc(C2=NN(CC(=O)O)C(=O)CC2)cc1 | -2.4 | · | · | · | 0.0
CSc1ncccc1C(=O)NC(C)C1CC2CCC1C2 (stereo not given) | 48.9 | · | 1.3% | 1.1 | -0.9
C=CCSc1nc(C)cc(/C=C\c2ccccc2)c1C#N | 0.8 | -29.4 | -9.3% | -7.1 | 1.6
CCOc1ccc(C2NC(=O)c3n[nH]c(C)c32)cc1 (stereo not given) | 1.6 | -33.7 | 3.9% | 11.1 | 1.9 | Arbovirus inh repeat=2.7
O=C(Cn1nc(-c2ccccc2Cl)ccc1=O)Nc1ccc(Br)cc1 | 0.1 | · | -6.8% | -3.1 | 5.6
CCS(=O)(=O)Nc1ccc(-c2nnc(SCC(=O)c3cccc(OC)c3)o2)cc1 | -8.3 | -12.9 | -1.9% | 3.4 | 1.1
Cc1c(NC(=S)NC(=O)C(C)(C)C)c(=O)n(-c2ccccc2)n1C | 0.3 | -16.4 | 1.9% | 3.9 | -2.8
COc1ccc(NS(=O)(=O)c2ccc(C)c(C(=O)O)c2)cc1 | 10.4 | -41.9 | 2.4% | 7.3 | 1.3
COCCn1c(N)c(Sc2ccccc2[N+](=O)[O-])c(=O)[nH]c1=O | -6.4 | · | -2.6% | · | 0.5
O=C(COC(=O)c1cc2c(s1)CCC2)Nc1ccc(F)cc1 | 67.9 | -6.2 | 11.7% | 8.9 | ·
CC(=O)Nc1ccc(NC(=S)Nc2ccc(Br)cc2)cc1 | -7.5 | · | 0.8% | · | 1.9
COc1ccc(NC(=S)N2CCC(N(C)CC3CCCO3)CC2)cc1Cl (stereo not given) | 5.8 | -23.4 | -1.9% | -3.8 | -2.8
CCc1ccc(/C=C2/Sc3ccccc3N(CC(=O)NCCCOC)C2=O)cc1 | -0.2 | · | 3.0% | -11.9 | -0.4
COc1ccccc1C(=O)N(Cc1cccs1)C1CCS(=O)(=O)C1 (stereo not given) | -2.6 | -45.1 | · | -6.1 | -3.7
COc1ccccc1/C=C/C(=O)NCC(=O)N/N=C(/C)c1ccco1 | 7.1 | · | · | · | -0.5
O=[N+]([O-])c1ccc(-c2cc(-c3ccncc3)nc3ccc4ccccc4c23)cc1 | · | -52.1 | 0.9% | 0.8 | ·
COc1ccc(CNC(=S)Nc2ccccc2Cl)cc1 | 4.9 | · | · | · | -1.4
C=CCc1cc(C)cc(C)c1OCCn1cncn1 | -7.6 | -13.5 | 2.2% | 0.7 | 0.1
c1ccc2c3c([nH]c2c1)C(C1CCCCC1)N(Cc1ncc[nH]1)CC3 (stereo not given) | -1.7 | · | 5.4% | -13.5 | -2.1
O=C(NCc1ccccn1)Nc1ccc(Cl)c(Cl)c1 | -3.9 | -6.0 | -3.8% | 2.4 | 5.0
O=C(OCCOCCN=C1NS(=O)(=O)c2ccccc21)c1ccncc1 | -10.0 | 8.6 | -5.6% | 1.6 | ·
Cc1ccc(CSc2nc(N)cc(N)n2)cc1 | 44.8 | · | · | · | -0.9
O=C1C(Oc2ccccc2)C(c2ccc3c(c2)OCO3)N1CCc1ccc(F)cc1 (stereo not given) | ? | -24.7 | 5.3% | -3.7 | -11.8
CCCCC(NC(=O)COc1cc2c(c3oc(=O)cc(C)c13)CCC(C)(C)O2)C(=O)O (stereo not given) | -3.9 | · | · | · | -3.7
COc1cccc(NC(=O)C2CCOC2=O)c1 (stereo not given) | -0.9 | · | · | · | -0.3
C[C@@H]1CC[C@H]2[C@@H](C)C(=O)O[C@@H]3O[C@@]4(C)CC[C@@H]1[C@]32OO4 | -4.4 | · | · | · | 1.3

Three successive compounds from above, for reference:
SMILES | Mtb bLac sens | YopH PTP inh | Mtb growth | Arbovirus inh | RecA intein inh | others
Cc1ccc(SCC(=O)O/N=C(\N)c2ccc([N+](=O)[O-])cc2)cc1 | 3.0 | -19.4 | -5.5% | -12.2 | 10.8
O=C(Nc1ccc(C(=O)N2CCCCC2)cc1)c1ccccc1Br | -14.6 | · | · | · | -0.4
CC(C)c1nnc(NC(=O)CSc2nnc(NC(=O)c3c(F)cccc3F)s2)s1 | 4.1 | · | -5.0% | 11.4 | ·

(more compounds)
SMILES | Mtb bLac sens | YopH PTP inh | Mtb growth | Arbovirus inh | RecA intein inh | others
O=C(CSc1nc2ccccc2c(=O)n1-c1ccc(Cl)cc1)N/N=C/C=C/c1ccccc1[N+](=O)[O-] | -9.1 | -9.5 | -0.6% | 2.9 | -1.3
Cc1c(/C=N\NC(=O)c2ccc([N+](=O)[O-])cc2)cnn1C | -4.4 | -19.7 | -3.5% | 1.8 | -2.7
Cc1nc2ccc(NC(=S)N3CCOCC3)cc2nc1C | -0.9 | · | -1.4% | 2.0 | 1.5
COc1ccc(/C=C(/NC(=O)c2cccs2)C(=O)N2CCOCC2)cc1OC | 4.8 | -14.6 | 3.2% | 6.4 | -0.3
CCc1nnc(NC(=O)CCC(=O)N2CCCC2)s1 | 5.5 | -36.3 | -9.7% | 4.5 | 6.0
ClCCNc1nc2ccc(Cl)cc2[nH]1 | 0.7 | -29.4 | -0.4% | -6.5 | -0.2
O=c1c2[nH]c3ccccc3c2ncn1CCN1CCCCC1 | -4.4 | -10.3 | -3.1% | 6.8 | -3.6
COC(=O)c1ccc2nc(NC(=O)COC(=O)CSc3nc(C)cc(C)n3)sc2c1 | -0.7 | -8.0 | 13.9% | 5.6 | -2.1
CCOC(=O)Cc1csc(NC(=O)CSc2nncn2C)n1 | 1.9 | -12.6 | -4.2% | 2.1 | 1.1
CS(=O)(=O)c1ccccc1C(=O)Nc1cc2c(cc1C(=O)O)OCCCO2 | -4.4 | · | · | · | 1.8
CC(C)OC(=O)CSc1nnc(Cc2ccccc2)n1CC1CCCO1 (stereo not given) | -2.4 | -13.0 | 2.5% | 1.2 | -5.1
OCCC1CN(Cc2cnc(N3CCOCC3)s2)CCN1C1CCCC1 (stereo not given) | -6.9 | · | -2.8% | 8.2 | 1.0
CCOC(=O)c1ccccc1NC(=O)Cn1cnc2c(nnn2-c2ccc(C)cc2)c1=O | -5.9 | -32.6 | 1.1% | -3.9 | -0.3 | Arbovirus inh repeat=-4.0
CCOc1ccc(C2=Nn3c(nnc3-c3ccco3)SC2)cc1 | 11.7 | -9.9 | 8.0% | -3.0 | 3.5
COc1ccccc1C(=O)Nc1nnc(-c2ccc(F)cc2)o1 | 20.6 | -37.6 | 9.1% | 0.0 | 0.7 | Arbovirus inh repeat=-4.2
Cc1ccc2cc(C#N)c(SCC(=O)NCc3ccco3)nc2c1 | 0.9 | -42.7 | -4.1% | -6.2 | ·
COc1cc(NC(=O)COC(=O)CNC(=O)c2ccc(C)s2)cc(OC)c1 | -1.6 | · | -5.0% | 9.6 | 5.7
O=C(O)C1CC(c2ccccc2)=Nc2ccccc2S1 (stereo not given) | 7.4 | · | 9.9% | · | 3.0
CC(C)NC(=O)NNc1c(Cl)cncc1Cl | 0.1 | · | -2.0% | · | 0.1
CC(C)CC(=O)Nc1ccccc1N1CCN(c2ccc(F)cc2)CC1 | 2.5 | · | 1.9% | -5.9 | 7.9
COC(=O)c1cc(-c2ccccc2)n(CCN)c1C | -6.5 | · | -3.0% | · | -3.4
O=C(N/N=C/c1ccc2c(c1)OCO2)C(=O)Nc1ccccc1Cl | 6.9 | · | · | · | -2.5
CC(=O)N/C(=C\c1ccccc1)C(=O)OCC(=O)Nc1cc(S(=O)(=O)N(C)C)ccc1C | 0.5 | · | · | · | -2.9
Cc1ccc(NC(=O)CCNC(=O)c2ccc([N+](=O)[O-])cc2)cc1S(=O)(=O)N(C)C | 4.8 | · | 12.4% | 1.9 | -0.7

Source: PubChem
